# Bioassay records as filed in PubChem.
# Runt-SMMHC FRET – Runt domain-CBFb-SMMHC interaction inhibition; Q01196+Q13951; Cerulean-Runt/Venus-CBFb-SMMHC FRET ratio 530/480, 1 h; inhibition, % at 20 µM; hit rate 0.74% among 220,000; AID 1434;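 active = mean inhibition across duplicate retests at 20 µM reaching about 50%, limit read from the data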;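 also: 0% = DMSO wells and 100% = wells with excess untagged CBFb-SMMHC; inhibitors lower the FRET ratio by blocking Runt binding to CBFb-SMMHC; some results filed as inactive read as strong as hits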
# Mdm2 ligase inh – inhibitors of human Mdm2 E3 ubiquitin ligase | Q00987 | AID 1230 | cell-based MDM2 ubiquitination luciferase reporter, 2 h; 0 = plate control, 100 = twice control, blank-subtracted | signal enhancement, % at 5 µM | hit rate 0.11% among 210,000;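 active = signal enhancement of 30% or more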;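 also: luminescence tracks abundance of the self-degrading MDM2-luciferase fusion protein; higher signal means inhibition of MDM2 E3 ligase activity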
#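 system = mammalian cells stably expressing self-ubiquitinating, self-degrading MDM2 E3–luciferase fusion | quantity = 2000 cells per well seeded | incubation = 4 h cell settling then 2 h compound exposure, 37 °C | signal = SteadyLite luminescence, 15 min reagent step | benchmarks = plate control and blank wells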
# RBBP9 inhibitor – blocks human serine hydrolase RBBP9. AID 1515. O75884. recombinant RBBP9, FP-Rh probe fluorescence polarization. hit rate 0.2% among 220,000. inhibition, % at 7.94 µM;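 active = inhibition above the campaign mean of all tested compounds plus 3 SD, cut at about 14% in these data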;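 also: plate controls were DMSO wells with RBBP9 for no effect and wells lacking RBBP9 protein for full effect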
# Target sequence (O75884 whole entry, looked up): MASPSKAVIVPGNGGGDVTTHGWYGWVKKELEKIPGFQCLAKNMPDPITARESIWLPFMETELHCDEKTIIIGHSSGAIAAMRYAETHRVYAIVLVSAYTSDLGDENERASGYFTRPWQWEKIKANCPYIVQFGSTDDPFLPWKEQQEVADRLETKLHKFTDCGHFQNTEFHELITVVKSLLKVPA
#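 system = RBBP9 protein | input = RBBP9 at 2.5 µM in dispensed solution, before mixing | measured by = fluorescence polarization (mP), excitation 525 nm, emission 598 nm | incubation = enzyme-compound preincubation 30 min, then probe labeling 45 min, 25 °C | buffer or medium = Tris-NaCl-Pluronic buffer, pH 8.0 | compound = single dose 7.94 µM | also added = FP-Rh probe, 375 nM dispensing solution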
# Hck-Nef inh – human Hck-Nef kinase inhibition | P08631 | Recombinant Hck-YEEI plus Nef, Z-Lyte FRET kinase assay | inhibition, % at 20 µM | hit rate 0.68% among 220,000 | AID 463187;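 active = Hck-Nef kinase inhibition above about 50%, limit read from the data; inactive = inhibition below that limit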;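 also: 0% = DMSO with Hck plus Nef and 100% = Hck alone without Nef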
# p97 inhibitor – blocks human p97 ATPase activity. inhibition, % at 8 µM. hit rate 0.42% among 220,000. AID 1481. recombinant p97 ATPase, Kinase-Glo ATP luminescence, 3 h. P55072; in the data active = inhibition above about 15%;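 also: 0% = DMSO vehicle and 100% = wells lacking enzyme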
# The depositor's hits bear a star; / = no result given; & = joins results of further samples. These rows are one share of the data (hit frequency here may not be typical).
SMILES,Runt-SMMHC FRET,Mdm2 ligase inh,RBBP9 inhibitor,Hck-Nef inh,p97 inhibitor
CN(C)CC/C=C1\c2ccccc2COc2ccccc21,1,/,-10,1,3
Nc1ccn([C@@H]2O[C@H](CO)[C@@H](O)[C@@H]2O)c(=O)n1,2,/,-4,-6,-3
NCCNCCNCCN,-2,/,-5,-6,8
CN1CCN(c2c(F)cc3c(=O)c(C(=O)O)cn(CCF)c3c2F)CC1,-3,/,-12,/,5
CN[C@H]1CC[C@@H](c2ccc(Cl)c(Cl)c2)c2ccccc21,1,/,0,/,7
NS(=O)(=O)c1cc2c(cc1C(F)(F)F)NCNS2(=O)=O,-2,/,-7,-2,0
COc1ccc2c(c1OC)C(=O)OC2C1c2c(cc3c(c2OC)OCO3)CCN1C (stereo unspecified),2&-2,5,-9&-4,-3&-5,2&2
Nc1ccc(S(=O)(=O)c2ccc(N)cc2)cc1,0,/,0,-9,2
C[C@H]1O[C@@H](O[C@H]2[C@@H](O)C[C@H](O[C@H]3[C@@H](O)C[C@H](O[C@H]4CC[C@@]5(C)[C@H](CC[C@@H]6[C@@H]5C[C@@H](O)[C@]5(C)[C@@H](C7=CC(=O)OC7)CC[C@]65O)C4)O[C@@H]3C)O[C@@H]2C)C[C@H](O)[C@@H]1O,3,/,-4,-3,2
CC(C)(C)NC(=O)[C@H]1CC[C@H]2[C@@H]3CC[C@H]4NC(=O)C=C[C@]4(C)[C@H]3CC[C@]12C,-3,/,4,/,7

# In the list so far, these contain sulfur.
SMILES,Runt-SMMHC FRET,Mdm2 ligase inh,RBBP9 inhibitor,Hck-Nef inh,p97 inhibitor
NS(=O)(=O)c1cc2c(cc1C(F)(F)F)NCNS2(=O)=O,-2,/,-7,-2,0
Nc1ccc(S(=O)(=O)c2ccc(N)cc2)cc1,0,/,0,-9,2

# Returning to the listing with the six entries that preceded the break.
SMILES,Runt-SMMHC FRET,Mdm2 ligase inh,RBBP9 inhibitor,Hck-Nef inh,p97 inhibitor
CN[C@H]1CC[C@@H](c2ccc(Cl)c(Cl)c2)c2ccccc21,1,/,0,/,7
NS(=O)(=O)c1cc2c(cc1C(F)(F)F)NCNS2(=O)=O,-2,/,-7,-2,0
COc1ccc2c(c1OC)C(=O)OC2C1c2c(cc3c(c2OC)OCO3)CCN1C (stereo unspecified),2&-2,5,-9&-4,-3&-5,2&2
Nc1ccc(S(=O)(=O)c2ccc(N)cc2)cc1,0,/,0,-9,2
C[C@H]1O[C@@H](O[C@H]2[C@@H](O)C[C@H](O[C@H]3[C@@H](O)C[C@H](O[C@H]4CC[C@@]5(C)[C@H](CC[C@@H]6[C@@H]5C[C@@H](O)[C@]5(C)[C@@H](C7=CC(=O)OC7)CC[C@]65O)C4)O[C@@H]3C)O[C@@H]2C)C[C@H](O)[C@@H]1O,3,/,-4,-3,2
CC(C)(C)NC(=O)[C@H]1CC[C@H]2[C@@H]3CC[C@H]4NC(=O)C=C[C@]4(C)[C@H]3CC[C@]12C,-3,/,4,/,7
CN(C)CC/C=C1/c2ccccc2Sc2ccc(Cl)cc21,10,-10,-6,-8,-1
Nc1ncnc2c1ncn2[C@@H]1O[C@H](CO)[C@@H](O)[C@H]1O,3,/,-4,-2,7
COc1ccc2c(c1)c(CC(=O)O)c(C)n2C(=O)c1ccc(Cl)cc1,-2,/,-2,-7,3
CN1C(C(=O)Nc2ccccn2)=C(O)c2sccc2S1(=O)=O,-1,/,7,-2,4

# Part of the list above, showing only Mdm2 ligase inh, RBBP9 inhibitor and p97 inhibitor:
SMILES	Mdm2 ligase inh	RBBP9 inhibitor	p97 inhibitor
COc1ccc2c(c1)c(CC(=O)O)c(C)n2C(=O)c1ccc(Cl)cc1	/	-2	3
CN1C(C(=O)Nc2ccccn2)=C(O)c2sccc2S1(=O)=O	/	7	4
